MgrA DNA FP – alters Staphylococcus aureus MgrA binding to DNA; fluorescence polarization; inhibition, %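 (about 10 µg/mL by stock and volumes)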; 84,000 compounds, 0.13% hits;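 active means above 50% in either of two replicates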;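 further: 0% = protein plus DNA without compound and 100% = DNA alone without protein; higher means less MgrA bound to DNA so lower polarization; one replicate is shown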
S aureus helic – blocks Staphylococcus aureus DNA helicase | purified S. aureus helicase, fluorescence unwinding assay; about half of the hits fall short of the stated cut | 120,000 compounds, 0.05% hits | AID 485395 | inhibition, %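 (tested at about 80 µM)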;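 active means both duplicates at 50% or more, or one of them with a favoured structure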;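 further: 0% = mean of negative control wells and 100% = mean of positive control wells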
* hit, by the source's call; / = no result given.

cpd	Structure	MgrA DNA FP	S aureus helic
1	C[C@]12C[C@H](O)[C@H]3[C@@H](CCC4=CC(=O)CC[C@@]43C)[C@@H]1CC[C@@H]2C(=O)CO	-2.5	/
2	CCOC(=O)c1c(N/C=C(\C#N)c2nc(-c3cccs3)cs2)sc2c1CCC2	0.8	4.0
3	CC(C)NC(=O)CSc1cc(-c2cccnc2)c2c(c1C#N)CCCC2	-0.1	7.0
4	COc1ccc(-n2cccc2CO)cc1	5.8	12.0
5	Cc1cccc(-n2nnnc2SCC(=O)c2c[nH]c3ccccc23)c1	/	-6.0
6	Cc1ccc(N(CC#N)C(=O)Cn2cc[n+](C)c2)cc1	3.5	-17.0
7	O=C1S/C(=C/c2cc3c(cc2Cl)OCO3)C(=O)N1c1ccccc1	/	31.0
8	O=C(OCC(=O)c1cccs1)c1ccc2c(c1)S(=O)(=O)c1ccccc1C2=O	/	-11.0
9	CCCCSC1=NS(=O)(=O)c2ccccc2N1CCCC	/	15.0
10	C#CCN=C(NC#N)SC	-1.1	/
11	CNc1nc(OC)cc(OC)n1	0.4	-13.0
12	O=C(Cn1ncc2c(=O)oc3ccccc3c21)N(Cc1ccco1)C1CCCCC1	/	-9.0

(cont.)
cpd	Structure	MgrA DNA FP	S aureus helic
13	CC1(C)Cc2nc3sc4c(NCC5CCCO5)ncnc4c3cc2CO1 (stereo not drawn)	2.8	8.0
14	COc1cc(OC)cc(C(=O)N2CCC(C(=O)NC(C)C)CC2)c1	-4.2	11.0
15	CC1CC(OCC(O)CN2CCN(c3cccc(C(F)(F)F)c3)CC2)CC(C)(C)C1 (stereo not drawn)	/	25.0
16	O=C(Nc1cccc(C(F)(F)F)c1)C1CC(c2ccccc2O)=NO1 (stereo not drawn)	-1.1	7.0
17	OC(CN1CCN(c2nc3ccccc3s2)CC1)c1ccc(Cl)cc1 (stereo not drawn)	-4.9	7.0
18	CCCCNC(=O)Cn1c(=S)[nH]c2c([nH]c3ccc(OC)cc32)c1=O	/	-16.0
19	O=S(=O)(NCC1OCCc2ccccc21)c1ccccc1 (stereo not drawn)	1.1	-2.0
20	CS(=O)(=O)c1cccc(Cl)n1	2.5	7.0
21	Nc1ccc(S(=O)(=O)C(F)(F)F)cc1	2.5	5.0
22	CCc1ccc2[nH]c(C(=O)NCc3ccccc3)cc2c1	0.6	/
23	Cc1csc2nc(COC(=O)CSc3ccccc3)cc(=O)n12	/	7.0
24	CN(C)CCN(Cc1ccccc1)Cc1c(F)cccc1Cl	-0.8	13.0

More compounds:
cpd	Structure	MgrA DNA FP	S aureus helic
25	O=C(O)c1ccccc1C1=Nc2ccc(O)cc2Oc2cc(O)ccc21	21.0	-94.0
26	O=C(c1ccc[nH]1)c1cc2cc(Br)ccc2o1	/	-30.0
27	CCN(CC)CC(=O)OC1CC2CCC1(C)C2(C)C (stereo not drawn)	-7.9	6.0
28	CC(=O)/C(N=Nc1cccc(C(F)(F)F)c1)=C(\C)O	-0.2	/
29	CP(=O)(O)CN1CCN(CP(C)(=O)O)CC1	-12.7	-5.0
30	NC(=O)Cn1c(=O)n(CCC(=O)NCCc2ccc(Cl)cc2)c(=O)c2sccc21	2.7	2.0
31	O=C(NN1C(=O)S/C(=C/c2ccc(Cl)cc2)C1=S)c1ccccc1Cl	1.4	10.0
32	CC(=O)Nc1nonc1NC(C)=O	-1.3	3.0
33	Cc1ccc(Nc2nc(C(=O)NCC3CCCO3)cs2)cc1 (stereo not drawn)	-2.2	5.0
34	CCCCC[C@H](O)/C=C/[C@@H]1[C@@H](CCCCCCC(=O)O)[C@@H](O)C[C@H]1O	0.0	/
35	CCN(CCO)c1ncnc2onc(-c3ccccc3C)c12	/	-25.0
36	CN1CCN(C(=O)c2ccccc2NC(=O)COc2ccc(Cl)cc2)CC1	1.0	-17.0

(cont.)
cpd	Structure	MgrA DNA FP	S aureus helic
37	C=CCN1C(=O)C(CC(=O)Nc2ccccc2)N(Cc2ccccn2)C1=S (stereo not drawn)	1.9	-9.0
38	CCOC(=O)COc1ccc(C=C2C(=O)NC(=O)NC2=O)cc1Br	12.1	8.0
39	CC1CC(C)CN(S(=O)(=O)c2ccc3nnn(O)c3c2)C1 (stereo not drawn)	/	-6.0
40	O=c1c2cnn(-c3cccc(Cl)c3)c2ncn1CCC1OCCO1	/	1.0
41	CN(C)C1(CNCC(=O)Nc2ccc(Cl)cc2Cl)CCCCC1	/	-14.0
42	Nc1c2c(nc3ccn(-c4ccccc4)c(=O)c13)CCCCC2	-0.8	3.0
43	O=C(c1cnc2ccc(Cl)cc2c1Cl)N1CCOCC1	-2.8	4.0
44	CC(=O)N1CCc2c(sc3nc(SCc4cccc(F)c4)n(Cc4ccco4)c(=O)c23)C1	/	-33.0
45	O=C(c1ccc(Cl)cc1)N1CCC(n2nnc3ccccc32)CC1	-2.5	/
46	COc1ccc(-n2[nH]c(C)c(C(C)=NCCc3ccc(S(N)(=O)=O)cc3)c2=O)cc1	-3.6	9.0
47	Cc1cc(C)nc(Sc2c(C)n[nH]c2C)n1	-2.2	-13.0
48	CS(=O)(=O)N(Cc1ccc(C(=O)O)cc1)c1cccc(Cl)c1Cl	2.4	0.0

Remaining list, next part
cpd	Structure	MgrA DNA FP	S aureus helic
49	CN(C)C(=S)SCCCn1c(=O)[nH]c2ccccc21	/	-5.0
50	NC(=O)C1CCN(C(=O)CN2CCC(Cc3ccccc3)CC2)CC1	-4.1	21.0
51	CC(C)CN(CC(C)C)S(=O)(=O)c1cccs1	/	37.0
52	Cc1cc2nc(NCCOc3ccccc3)c3ccccc3n2n1	/	3.0
53	CCOC(=O)Cn1c(=NC(=O)c2ccc(N3C(=O)CCC3=O)cc2)sc2cc(S(N)(=O)=O)ccc21	/	5.0
54	Cc1cc(Oc2ccc(C(F)(F)F)cc2[N+](=O)[O-])c2cc(F)ccc2n1	-2.8	/
55	O=C(CSc1nc2ccc(N3C(=O)c4ccccc4C3=O)cc2s1)c1ccccc1	-0.6	9.0
56	O=C(O)CCCC(=O)Nc1ccc(-n2ccc(C(F)(F)F)n2)cc1	-0.9	/
57	Cc1cc(NC(=O)C2CC2)n(-c2ccccc2C(F)(F)F)n1	-1.1	1.0
58	CCCCc1c(C)nc2cc(-c3ccco3)[nH]n2c1=O	-2.6	/
59	CN(C)C(=O)COc1ccc2ccccc2c1	-0.8	/
60	CCCOc1ccc(CNC(=O)Cc2cccs2)cc1	/	8.0

Continuation:
cpd	Structure	MgrA DNA FP	S aureus helic
61	Cc1cc(Nc2ccccc2C(=O)O)nc2nc3ccccc3c(=O)n12	/	5.0
62	CN(c1ccccc1C(N)=O)S(=O)(=O)c1ccccc1	2.9	3.0
63	COc1ccc(-c2cc(=O)oc3c(C)c(O)c(CN4CCCC(C)C4)cc23)cc1 (stereo not drawn)	-0.6	17.0
64	CCOC(=O)CN=C(c1ccccc1)c1ccccc1	-0.1	5.0
65	N#Cc1c(N2CCOCC2)nsc1-c1ccccc1	-3.2	/
66	CCOC(=O)c1nc(N(C)C2CCCCC2)c2ccccc2n1	/	8.0
67	O=C(c1cn(-c2ccc(F)cc2F)c(=O)c2ccccc12)N1CCN(c2ccccc2)CC1	-1.4	12.0
68	c1ccc2c3c([nH]c2c1)C1C2CCC(C4CCCNC42)N1CC3 (stereo not drawn)	-0.6	/
69	COC(=O)CS(=O)(=O)c1nccn1C	-0.7	/
70	Fc1cccc(-n2ncc3c2ncn2nc(-c4ccccc4)nc32)c1	/	-19.0
71	N#Cc1ccc(-c2cccs2)s1	-2.3	/
72	CCc1nc2n(n1)C(c1ccc3c(c1)OCO3)C(C(=O)Nc1ccccc1OC)=C(C)N2 (stereo not drawn)	/	-4.0

The list continues:
cpd	Structure	MgrA DNA FP	S aureus helic
73	CC(C)NC(=O)C(C)Oc1ccc(S(N)(=O)=O)cc1 (stereo not drawn)	-3.8	6.0
74	CCc1cc(=O)oc2cc(C)c3c(-c4ccccc4)coc3c12	1.8	13.0
75	CC[C@H]1OC(=O)[C@H](C)[C@@H](O[C@H]2C[C@@](C)(OC)[C@@H](O)[C@H](C)O2)[C@H](C)[C@@H](O[C@@H]2O[C@H](C)C[C@H](N(C)C)[C@H]2O)[C@](C)(O)C[C@@H](C)C(=O)[C@H](C)[C@@H](O)[C@]1(C)O	-0.9	/
76	CC(C)NC(=O)CN1CCN(Cc2c(O)ccc3cc(Br)ccc23)CC1	/	-5.0
77	Cc1ccc2c(c1)N(C(C)C(=O)NCc1ccc3c(c1)OCO3)C(=O)CO2 (stereo not drawn)	/	24.0
78	CC1OCN(c2ccc(OC(F)(F)F)cc2)Cn2c1nc1ccc(Cl)cc12 (stereo not drawn)	3.2	/
79	COc1ccc(CC(=O)Oc2ccc(F)cc2)cc1	-2.5	2.0
80	Cc1cccc(C)c1NC(=O)NC1CCc2ccccc21 (stereo not drawn)	3.5	19.0
81	CC1C(c2ccccc2)CC(C(=O)O)C1(C)C (stereo not drawn)	0.4	-2.0
82	CNC(=O)c1cc2ccccc2oc1=O	/	-12.0
83	CC(=O)N1CCC(C(=O)OCC(N)=O)(c2ccccc2)CC1	/	-9.0
84	O=S(=O)(Nc1ncccn1)c1ccccc1	/	-7.0

Sorted by molecular weight (low to high): part of the list above
cpd	Structure	MgrA DNA FP	S aureus helic
65	N#Cc1c(N2CCOCC2)nsc1-c1ccccc1	-3.2	/
35	CCN(CCO)c1ncnc2onc(-c3ccccc3C)c12	/	-25.0
66	CCOC(=O)c1nc(N(C)C2CCCCC2)c2ccccc2n1	/	8.0
50	NC(=O)C1CCN(C(=O)CN2CCC(Cc3ccccc3)CC2)CC1	-4.1	21.0
54	Cc1cc(Oc2ccc(C(F)(F)F)cc2[N+](=O)[O-])c2cc(F)ccc2n1	-2.8	/
63	COc1ccc(-c2cc(=O)oc3c(C)c(O)c(CN4CCCC(C)C4)cc23)cc1 (stereo not drawn)	-0.6	17.0

(cont.)
cpd	Structure	MgrA DNA FP	S aureus helic
85	Cc1cc(Nc2ccccc2C(=O)O)n(-c2c(Cl)cccc2Cl)n1	0.1	/
86	Nc1c(C(=O)c2ccco2)oc2ccccc12	/	7.0
87	CC(=O)N1CCCc2cc(S(=O)(=O)N3CC=C(c4ccccc4)CC3)ccc21	/	5.0
88	O=C(O)c1cc(C(=O)O)cc(N2C(=O)c3ccccc3C2=O)c1	/	-31.0
89	CCNc1ccc(C(=O)O)cc1N	/	-8.0
90	CCn1nc(C)cc1-c1nnc(SCc2ccc(C(F)(F)F)cc2)o1	0.1	/
91	CCc1ccc2oc(-c3cc(N)cc(C)c3O)nc2c1	1.7	10.0
92	CN(c1ccccc1)S(=O)(=O)c1cn(C)c(=O)n(C)c1=O	/	12.0
93	CCCc1nc(SCC(=O)N2CCCC2)c2ccccc2n1	-0.3	9.0
94	O=C(Nc1ccc2c(c1)oc1ccccc12)C1CC1	-1.8	9.0
95	O=C1CCC(C(=O)N=c2sccn2Cc2ccc(Cl)cc2Cl)=NN1	/	-15.0
96	CCOC(=O)NC(=S)Nc1ccc(F)cc1F	/	27.0

Carrying on:
cpd	Structure	MgrA DNA FP	S aureus helic
97	Fc1ccc(-c2csc3ncnc(NCCc4ccc5c(c4)OCO5)c23)cc1	2.3	/
98	Cc1ccc(CNC(=O)/C=C/C(=O)O)cc1	-9.2	/
99	COC(=O)c1scc(C)c1NS(=O)(=O)c1ccc2c(c1)CCO2	-1.4	/
100	Cc1nn2c(=O)/c(=C/c3ccccc3)sc2nc1=O	19.1	3.0
101	Cc1cc(NC(=O)c2sc3nc4c(cc3c2N)C2CCN4CC2)no1	1.5	10.0
102	Cc1cc(C)c2nc(N3CCC(C(=O)N4CCOCC4)CC3)sc2c1	/	2.0
103	COc1cc(-c2cc(C#N)on2)ccc1OCc1ccccc1	0.8	15.0
104	OC1CCCc2ccccc21 (stereo not drawn)	/	1.0
105	CC(C)CN(CC(C)C)c1nc(N)c(C#N)c(CC#N)c1C#N	/	-21.0
106	O=C1NC(=O)C2CC=CCC12 (stereo not drawn)	/	7.0
107	O=C(COc1cccc2c1CCN(Cc1ccccc1)C2=O)N1CCCCC1	/	20.0
108	CCOC(=O)c1c(C)oc2cc(Br)c(O)c(CN(C)C)c12	/	-25.0

Following part.
cpd	Structure	MgrA DNA FP	S aureus helic
109	COc1cc(C(F)(F)F)nc2ccc(Br)cc12	-2.3	/
110	COC(=O)CCC(=O)Nc1nc(-c2ccccc2)cs1	/	11.0
111	COc1ccc(C(=O)C(C(c2ccccc2)N2CCOCC2)N2CCOCC2)cc1 (stereo not drawn)	/	-1.0
112	CCOc1ccc2c(c1)s/c(=N/C(=O)Nc1ccc(OC)cc1)n2C	/	6.0
113	Cn1nc(C(C)(C)C)cc1C(=O)Nc1ccccc1	-1.6	/
114	CCCn1c(-c2ccc(F)cc2)cnc1SCC(=O)N1CCCCC1C (stereo not drawn)	-0.7	18.0
115	CCOc1ccc(C(=O)NC2CCCCC2)cc1	3.6	10.0
116	CC(C)(C)c1csc(-c2ccc(Cl)cc2)n1	1.1	/
117	O=C1CSC(=O)N1CCN=Cc1c(O)n(Cc2ccccc2)c(=O)c2ccccc12	/	-12.0
118	CNC(=S)Nc1cccc(C(=O)OC)c1	/	18.0
119	c1ccc(C2=Nn3c(nnc3-c3cnccn3)SC2)cc1	2.7	-12.0
120	CCn1cc(C(=O)NCC(OC)OC)c(=O)c2cc(S(=O)(=O)N3CCCC3)ccc21	-2.0	3.0

Carrying on:
cpd	Structure	MgrA DNA FP	S aureus helic
121	CC(=O)Nc1cc(C)nn1C	3.5	/
122	N#Cc1c(N)nc(SC2CCCCC2=O)c(C#N)c1-c1ccc(O)cc1 (stereo not drawn)	/	-26.0
123	CCSc1nc2c(c(=O)[nH]1)C(C(C)C)C(C#N)=C(N)O2 (stereo not drawn)	2.2	6.0
124	Cc1ccc(CNC(=O)c2oc3ccc4c(c3c2C)C(=O)CC(C)(C)O4)cc1	/	4.0
125	CCC(CC)NC(=O)c1cccc(OC)c1OC	0.5	3.0
126	CN(C)/N=C/c1cn(-c2ccccc2)nc1-c1cccnc1	/	6.0

Source: PubChem (ICCB-Longwood Screening Facility, Harvard Medical School)

A portion of the library; rates above refer to the full screens.
